Vaccinia pol inh: vaccinia E9 polymerase processive synthesis inhibition; 46,000 tested, 0.94% active; AID 493162; normalized absorbance, % (test concentration not listed); in vitro processive DNA synthesis, absorbance read-out; stronger effect = lower value; some inactives read as strong as hits;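 active = replicate mean up to 90% and picked by the depositor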;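 note: 100% = median of the test wells of a plate; 100 nL library stock went into each well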
Numbers without * were called inactive. A portion of the library (hit frequency here may not be typical).

SMILES	Vaccinia pol inh
O=C(CC(=O)c1ccccc1)Nc1cc(C(F)(F)F)ccc1Cl	100
O=C(O)C(Cc1ccsc1)c1ccccc1 (stereo not drawn)	99
CC(=O)Oc1cc2c(C(=O)N3CCCC3)c(C)oc2c2ccccc12	105
CC(=O)N1C(=N)S/C(=C/c2cc3ccccc3nc2Sc2ccccc2)C1=O	100
CCOC(=O)N1CCC(NC(=O)Cn2ncc3c4ccccc4n(C)c3c2=O)CC1	102
CCOC(=O)c1sc(SC)c2c1CCc1conc1-2	93
O=C(COc1ccccc1O)NCC1CCCO1 (stereo not drawn)	104
CCc1c(C)c2cc3c(-c4ccccc4)coc3cc2oc1=O	116
Oc1ccc(C=NC2c3ccccc3-c3ccccc32)cc1	95
CCOC(=O)c1nc(C)n(-c2cc(Cl)cc(Cl)c2)n1	121
Cc1nnc(C)c2c(C)n(-c3ccccc3N)c(C)c12	98
CCOC(=O)CC1=C(C#N)C(c2cccnc2)C(C(=O)OCC)=C(N)O1 (stereo not drawn)	100
CN1C(=O)C(=Cc2ccc(-c3cccc(Cl)c3)o2)C(=O)N(C)C1=S	94
CN(C)CCCN1C(=O)C(O)=C(C(=O)c2cccs2)C1c1ccco1 (stereo not drawn)	99
CC1CCCN(C(=O)Cc2cn(Cc3cccc(Cl)c3)c3ccccc23)C1 (stereo not drawn)	80
CCOCC(=O)N1CCc2ccccc21	80
Cc1ccccc1OC(=O)Cn1c(=O)sc2ccccc21	101
Cc1ccc(S(=O)(=O)Nc2ccccc2N)cc1	99
O=C(NCCC1=CCCCC1)C1CCC(CNS(=O)(=O)c2ccccc2)CC1 (stereo not drawn)	118
COc1ccc2cc3c(N)nn(C(=O)c4ccncc4)c3nc2c1	90

Fetched one by one from the entries so far, four records:
SMILES	Vaccinia pol inh
CCOC(=O)CC1=C(C#N)C(c2cccnc2)C(C(=O)OCC)=C(N)O1 (stereo not drawn)	100
Cc1nnc(C)c2c(C)n(-c3ccccc3N)c(C)c12	98
CCOC(=O)N1CCC(NC(=O)Cn2ncc3c4ccccc4n(C)c3c2=O)CC1	102
O=C(CC(=O)c1ccccc1)Nc1cc(C(F)(F)F)ccc1Cl	100

New compounds follow.
SMILES	Vaccinia pol inh
COc1ccccc1NC(=O)CCC(=O)O	104
CSC(=NC1CCCCC1)NC#N	100
O=C(CNC(=O)c1ccccc1F)NCc1ccco1	99
c1csc(-c2nnc(N3CCCCCC3)c3ccccc23)c1	101
N=c1sc2ccccc2n1CC(O)c1ccc(Cl)c(Cl)c1 (stereo not drawn)	102
COc1ccc(CCNC(=O)c2ccc(Cl)cc2NC(=O)C2=C(C)OCCS2)cc1OC	99
COc1ccccc1Cn1c(=O)oc2ccc(C)cc21	72
O=c1ccc2ccc(OCc3ccc(F)cc3)cc2o1	93
O=S(=O)(Nc1ccccc1N1CCOCC1)c1ccc(-c2ccccn2)s1	89
CN1CCN(c2ccc(CNC(=O)c3ccc4c(c3)OCCO4)cc2)CC1	100
O=C1/C(=C/c2ccc(O)cc2)N=C(c2ccccc2)N1c1nc2cc(Cl)c(F)cc2s1	100
O=C(COc1ccccc1C(=O)O)Nc1ccc(Br)cc1	106
CC(Oc1ccc(F)cc1)C(=O)Oc1ccc(Cl)cc1 (stereo not drawn)	108
CC(C)CCNC(=O)Oc1ccccc1	109
CCN(C(=O)c1cc2c(-c3ccc(Cl)cc3)nn(C)c2s1)c1cccc(Cl)c1	102
O=S(=O)(c1ccc(N=Cc2ccncc2)cc1)c1ccc(N=Cc2ccncc2)cc1	100
Oc1ccccc1C=Nc1ccc(OC(F)(F)F)cc1	96
COc1ccc(/C=C2\SC(=S)N(CCC(=O)Nc3ccc(C)cc3)C2=O)cc1OC	101
O=C(c1cc2ccccc2oc1=O)N1CCOCC1	106
CC(C)(C)NC(=O)c1ccccc1SCc1ccc(F)cc1	99
Cc1cc(C)c(S(=O)(=O)N2CCN(Cc3ccc4c(c3)OCO4)CC2)c(C)c1	100
Cc1c(C)n(C(=O)CSc2ncn[nH]2)c2ccccc12	100
COC(=O)c1cccc(NC(=O)COC(=O)CSc2nc(C)cc(C)n2)c1	100
CN(C)c1ccc(-c2oncc2C#N)cc1	100
CCCCc1ccc(NC(=O)Nc2ccc(N3CCCCC3)cc2)cc1	102
CC1(C)CC(NCCCN2CCCCC2)=CC(=[N+]2CCCCC2)C1	95
CCN(CC)C(=O)N1CCN(CCC#N)CC1	100
O=C(Cc1ccccc1)c1ccc2c(c1)OCO2	100
O=C(Nc1c(-c2ccccc2)c2cc(Br)ccc2[nH]c1=O)c1ccccc1	99
O=C(OCc1nccn1Cc1ccc(Cl)cc1)c1ccccc1Cl	100
Cc1ccc(Cn2cc(CO)c3ccccc32)cc1	108
Cc1ccc(NC(=O)CSc2cccc[n+]2[O-])c(Br)c1	101
COc1ccc(-c2cn(-c3ccc(C)c(Cl)c3)c(=S)[nH]2)cc1OC	102
CCC(C)(C(=O)NC1CCCCC1)N(C)C(=O)Cc1cccs1 (stereo not drawn)	103
CC(C)(C)OC(=O)NC1CCN(C(=O)CSCC(=O)O)CC1	96
Cc1cc(NCc2ccccn2)n2c(nc3ccccc32)c1C#N	124
O=c1cc(-c2ccccc2)oc2cc(O)c(O)cc12	100
Cc1nc2c3ccccc3n(CC(=O)c3ccc(Br)cc3)c(=O)n2n1	95
COc1cccc2oc(-c3ccccc3)c(Br)c12	100
O=C(CSC1=NCCS1)C12CC3CC(CC(C3)C1)C2	103

Part of the list above in a different format.
CCC(C)(C(=O)NC1CCCCC1)N(C)C(=O)Cc1cccs1 (stereo not drawn)
  Vaccinia pol inh: 103
CC(C)(C)OC(=O)NC1CCN(C(=O)CSCC(=O)O)CC1
  Vaccinia pol inh: 96
Cc1cc(NCc2ccccn2)n2c(nc3ccccc32)c1C#N
  Vaccinia pol inh: 124
O=c1cc(-c2ccccc2)oc2cc(O)c(O)cc12
  Vaccinia pol inh: 100

(next part)
SMILES	Vaccinia pol inh
COc1ccc2c(Cl)c(C(=O)Nc3ccc(C(N)=O)cc3)sc2c1	104
COc1ccc(CC(=O)NC2CCCCC2)cc1OC	100
O=C(O)Nc1cc(Cl)cc(Cl)c1	95
CCC1CCCCN1C(=O)COC(=O)CSc1cc(C)ccc1C (stereo not drawn)	106
Cc1noc(NS(=O)(=O)c2ccc(NC3OC(=O)c4ccccc43)cc2)c1C (stereo not drawn)	100
C(=C\c1ccccc1)/C=N/[n+]1ccccc1	107
Cc1ccccc1NS(=O)(=O)c1ccccc1	98
OC(CN1CCNCC1)Cn1c2ccc(Br)cc2c2cc(Br)ccc21 (stereo not drawn)	31*
CCC(=O)c1[nH]c(C)c(C(=O)CC)c1C	103
Clc1ccc(CCN2COc3ccc(Cl)cc3C2)cc1	100
COC(=O)c1ccc(C(=O)Nc2nc3ccc(C)cc3s2)cc1	100
O=C(NCCc1ccccc1)c1csc2c1CCCCC2	101
O=C1/C(=C/c2ccco2)N=C(c2ccccc2)N1/N=C/c1ccc(F)cc1	103
CC[n+]1c(C)n(-c2ccccc2)c2ccc(N)cc21	99
NC(=S)Cc1c(Cl)sc2ccc(Cl)cc12	93
O=C(c1ccc(N2CCOCC2)nc1)N1CCSCC1	98
O=C(c1ccc2nsnc2c1)N(Cc1ccccn1)Cc1ccccn1	102
O=C(c1cnn(-c2ccccc2)c1-n1cccc1)N1CCc2ccccc21	100
CC(C)(C)c1cc2nc(C(F)(F)F)cc(Sc3ccccc3)n2n1	108
c1ccc(CSc2nc3ccccc3n3cnnc23)cc1	94
Cc1ccc(C)c(S(=O)(=O)Nc2ccc3oc4c(c3c2)CC(C(C)(C)C)CC4)c1 (stereo not drawn)	101
COc1ccccc1-c1nnc(SCC(=O)NC2CCCCC2)o1	96
CCOC(=O)N1CCC(NC(=O)C2CCCN(Cc3nc(-c4cccc(C)c4)oc3C)C2)CC1 (stereo not drawn)	103
CCOC(=O)N1CCN(C(=O)CNC(=S)N(Cc2cccs2)C2CCCCC2)CC1	102
Cc1cccc(C(=O)N2CCN(c3ccc(N4CCOCC4)nn3)CC2)c1	104
CCc1ccccc1N(CC)C(=O)Cn1ncc2c1-c1ccccc1OC2	96
Oc1oc(C=Nc2ccccc2)c2ccccc12	117
CCN(CC)c1ccc(NC(=O)C2CCCCC2)c(N(CC)CC)n1	102
Cc1cccc(NC(=O)C(C)C)c1	96
Cc1ccc2c(CN(C)c3ccccc3)cc(=O)oc2c1	95
O=C(COC(=O)c1ccccc1F)NC(c1ccccc1)c1ccccc1	104
COc1ccc(NC(=O)CSc2nc(O)cc(=O)n2-c2ccccc2OC)cc1	100
Cc1cc(C(=O)OCC(N)=O)c2ccccc2n1	92
N#CC(=C1CCCC1)c1nc(-c2cc3ccccc3oc2=O)cs1	100
COC(=O)COc1ccc2c(C)c(C)c(=O)oc2c1	100
CC(CN1CCOCC1)OC(=O)C1COc2ccccc2O1 (stereo not drawn)	98
Cc1c(C(=O)O)cc(-c2ccccc2)n1Cc1ccccc1	78
CCN(c1ccccc1)S(=O)(=O)c1ccc(O)cc1	101
CCC(Sc1nc2ccncc2[nH]1)C(=O)N(CC)CC (stereo not drawn)	96
O=C(CSc1ccc2nnc(-c3ccc(F)cc3)n2n1)OCc1ccccc1	88

Of the compounds above, 3 contain a CF3 group.
SMILES	Vaccinia pol inh
O=C(CC(=O)c1ccccc1)Nc1cc(C(F)(F)F)ccc1Cl	100
Oc1ccccc1C=Nc1ccc(OC(F)(F)F)cc1	96
CC(C)(C)c1cc2nc(C(F)(F)F)cc(Sc3ccccc3)n2n1	108

Next section
SMILES	Vaccinia pol inh
COc1ccc2oc(=O)c(C(=O)NC3=C(C#N)CCC3)cc2c1	100
C[N+](C)(C)CCOC(N)=O	100
CN(C)Cc1c(O)ccc2c(=O)c(-c3ccccc3)c(C(F)(F)F)oc12	102
COc1ccccc1C(=O)Nc1ncnc2sc3c(c12)CCCC3	100
O=C1c2ccccc2C(Nc2ccc(S(=O)(=O)N3CCOCC3)cc2)N1Cc1ccccc1Cl (stereo not drawn)	96
CCOC(=O)N1CCC(NC(=O)C(NC(=O)C2CCC(C)CC2)C(C)C)CC1 (stereo not drawn)	105
Cc1cc(Br)ccc1NC(=O)CS(=O)(=O)c1cccc2nsnc12	105
CN(C)c1ccc(C(=O)N2CCCC2)cc1	88
Cn1cnnc1SCC(=O)NC1CCCCCC1	94
Cc1ccc2oc(-c3cccc(NC(=O)CC(C)C)c3)nc2c1	100
C=C(C)C(=O)OCCc1ccc(O)c(-n2nc3ccccc3n2)c1	101
COc1ccc(-n2ccc(-c3ccccc3)nc2=S)cc1	84
OC(C#CC(O)(c1ccccc1)c1ccccc1)c1ccc(F)cc1 (stereo not drawn)	99
CN(C)c1ccc(-c2ccncc2)cc1	81
CCOC(=O)c1ccc(NC(=O)c2cc(=O)[nH]c3ccccc23)cc1	101
CC12CCC(=O)N1c1ccccc1C(=O)N2c1ccccc1 (stereo not drawn)	88
Cc1cc(OC(C)c2nc(-c3nonc3N)no2)ccc1Cl (stereo not drawn)	103
O=C1CC(=O)CC(c2ccccc2)C1	84
CCCCN1CCN(c2nc(-c3ccccc3)c3cc(C)ccc3n2)CC1	100
CC(=O)N1CCc2cc(N=Cc3ccc(Cl)cc3)ccc21	100
Cc1ccc(S(=O)(=O)N2Cc3ccccc3C(C)CC23CCCCC3)cc1 (stereo not drawn)	100
O=C1N=C(N2CCOCC2)SC1=C1CCCC1	100
Nc1[nH]c(=S)ncc1S(=O)(=O)c1ccccc1	104
CCN(CC)S(=O)(=O)c1cc(Br)cnc1N	102
O=c1oc2ccccc2cc1-c1nc(-c2ccncc2)n[nH]1	86
CCOC(=O)c1cccc(NC(=O)c2ccc(-c3ccccc3)s2)c1	97
CC(NC(=O)c1ccc(C23CC4CC(CC(C4)C2)C3)cc1)C(=O)O (stereo not drawn)	100
Cc1ccc2nc(NC(=O)CSc3nccn3-c3ccccc3)sc2c1	90
CCSc1nc2c(cc1C#N)C(=O)CCC2	102
CC1CCN(c2nncc3ccccc23)CC1	100
Cc1cc(C)cc(C(N)=Nc2cccc(C#N)c2)c1	99
Cc1noc(C)c1NC(=O)NCc1ccc2c(c1)OCO2	98
N#Cc1nc(-c2ccc(Cl)cc2)oc1NCCc1ccccc1	100
Cc1c(C)c(C)c(CN2CCCCC2)c(C)c1C	109
COc1ccc(-c2c(C)c3ccccc3oc2=O)cc1	93
COC(=O)c1ccc2nc(NC(=O)C(C)C)sc2c1	101
CN1c2ccccc2Oc2nnc(N3CCN(c4ccccc4)CC3)cc21	105
N#CCC(c1ccccc1)c1ccccc1	99
Cc1cc(=O)cc(C)n1-c1ccc(C(=O)O)cc1	100
CCCN1C(=O)C2(c3ccccc31)c1c(oc3ccccc3c1=O)C(=O)N2CCOC (stereo not drawn)	103

By substructure: the entries above containing a furan ring, fused or not.
SMILES	Vaccinia pol inh
CC(=O)Oc1cc2c(C(=O)N3CCCC3)c(C)oc2c2ccccc12	105
CCc1c(C)c2cc3c(-c4ccccc4)coc3cc2oc1=O	116
CN1C(=O)C(=Cc2ccc(-c3cccc(Cl)c3)o2)C(=O)N(C)C1=S	94
CN(C)CCCN1C(=O)C(O)=C(C(=O)c2cccs2)C1c1ccco1 (stereo not drawn)	99
O=C(CNC(=O)c1ccccc1F)NCc1ccco1	99
COc1cccc2oc(-c3ccccc3)c(Br)c12	100
O=C1/C(=C/c2ccco2)N=C(c2ccccc2)N1/N=C/c1ccc(F)cc1	103
Cc1ccc(C)c(S(=O)(=O)Nc2ccc3oc4c(c3c2)CC(C(C)(C)C)CC4)c1 (stereo not drawn)	101
Oc1oc(C=Nc2ccccc2)c2ccccc12	117

The listing continues:
SMILES	Vaccinia pol inh
O=C(N/C=C/c1ccccc1Cl)OCc1ccc(Cl)cc1	102
COc1cc(C(=O)NCCn2ccc3ccccc32)cc(OC)c1OC	97
Cc1ccc(C(=O)CCC(=O)Nc2nnc(C)s2)cc1	97
COC(=O)c1ccc(S(=O)(=O)Nc2ccc3c(c2)C(=O)OC3)n1C	101
CC(C)OCC(O)CN1CCN(c2ccccc2)CC1 (stereo not drawn)	112
CCc1ccc(NC(=O)CCn2cccc2)cc1	99
N#CCCn1ccc(NC(=O)c2ccc(Cl)cc2)n1	96
Cc1sc2nc(SCC(=O)N3CCCC3)[nH]c(=O)c2c1C	98
C/C(=N\O)C(C)(C)Nc1ccc(Cl)cc1	94
CC(=O)NCCOc1cccc2cccnc12	100

Source: PubChem BioAssay
